Screening data: PubChem, National Center for Advancing Translational Sciences (NCATS)
Rango release inh: inhibition of RanGTP-driven Rango-importin beta dissociation | Biochemical FRET Rango-importin beta, RanGTP-induced dissociation | AID 540253 | 340,000 tested, 0.071% active | Potency, µM (highest dose often 46.1 µM), for the others: at the highest dose activity change, negative = inhibition; active means falling FRET ratio curve, often poorly fitted, with flat reads before Ran was added; inconclusive means other falling curves, or compound fluorescence or quenching; inactive means flat or rising ratio curve;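 also: potency is read from the fitted curve at half-maximal effect; % of control where 0% means no effect; nearly all actives have a fitted effect of over 45% in size; -100% = wells without RanGTP and RCC1; the record marks most hits as doubtful in a second field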
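Recombinant Rango FRET biosensor (EYFP–snurportin 1 IBB–cerulean CFP10) at 0.1 uM premixed with 0.25 uM importin beta in PBS, 1 mM DTT, 0.02% Tween-20, 0.1% BSA. Compound added 5 min; RanGTP-RCC1 (0.6 uM Ran, 2 mM GTP, 0.2 uM RCC1) then triggers release, read at 45 min.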
Rango complex inh: prevents formation of the Rango-importin beta complex. Q14974. Rango CFP/YFP FRET sensor + importin beta, 45 min. Potency, µM (top dose mostly 92.2 µM), for inactives: at the top dose inhibition of complex formation. 340,000 tested, 0.031% active. AID 540263; active = rising FRET ratio curve, often small or poorly fitted; inconclusive = mostly compound fluorescence or quenching in the first reads; inactive = flat curves in all reads;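 also: potency is read from the fitted curve at half-maximal effect; 0% = DMSO wells and 100% = buffer wells lacking importin beta; nearly all actives have a fitted effect of over 15% in size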
Target sequence (Q14974 whole entry, looked up): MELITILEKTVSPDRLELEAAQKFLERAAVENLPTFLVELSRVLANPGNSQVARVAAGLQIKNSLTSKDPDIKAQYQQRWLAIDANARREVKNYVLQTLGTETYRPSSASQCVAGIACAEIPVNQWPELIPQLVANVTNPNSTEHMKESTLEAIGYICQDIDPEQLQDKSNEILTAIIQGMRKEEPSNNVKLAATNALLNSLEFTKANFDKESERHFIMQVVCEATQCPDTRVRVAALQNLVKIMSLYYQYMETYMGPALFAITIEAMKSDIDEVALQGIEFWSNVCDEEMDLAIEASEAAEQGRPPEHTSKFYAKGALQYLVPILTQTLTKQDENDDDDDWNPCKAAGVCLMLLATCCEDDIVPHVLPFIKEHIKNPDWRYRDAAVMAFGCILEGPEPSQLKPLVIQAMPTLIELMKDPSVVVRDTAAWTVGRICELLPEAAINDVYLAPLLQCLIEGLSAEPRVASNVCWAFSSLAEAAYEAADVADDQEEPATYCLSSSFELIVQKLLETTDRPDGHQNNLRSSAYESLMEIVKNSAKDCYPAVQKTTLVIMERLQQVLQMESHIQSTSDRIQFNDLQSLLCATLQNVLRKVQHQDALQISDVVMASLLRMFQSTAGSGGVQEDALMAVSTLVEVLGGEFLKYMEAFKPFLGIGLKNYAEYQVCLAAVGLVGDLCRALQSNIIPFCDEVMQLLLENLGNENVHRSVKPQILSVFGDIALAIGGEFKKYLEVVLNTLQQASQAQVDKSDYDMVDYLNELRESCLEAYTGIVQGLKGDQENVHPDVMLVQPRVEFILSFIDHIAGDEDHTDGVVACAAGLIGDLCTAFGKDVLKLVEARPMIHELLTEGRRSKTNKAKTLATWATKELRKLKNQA
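FRET biosensor (snurportin 1 IBB flanked by EYFP and cerulean), 50 nM, with compound 5 min, then 0.125 microM importin beta in PBS, 1 mM DTT, 0.02% Tween-20, 0.1% BSA. CFP/YFP ratio read after 45 min at room temperature; pre-read flags interference.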
miR-21 FLuc: miR-21 reporter, rising signal; HeLa miR-21 FLuc reporter, luciferase, 48 h; Potency, µM (top dose mostly 38.3 µM), for the others: at the top dose reporter change, positive = more light; 340,000 tested, under 10 active; AID 2288; active = well fitted rising curve with a large enough effect; inconclusive = small, poorly fitted or top-dose-only effect; inactive = no such curve, though single readings can be large or run the other way;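 also: % of control where 0% means no effect; miR-21 action dims this reporter so a rising signal means less miR-21 action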
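Luminescence from a firefly luciferase reporter carrying a miR-21 binding site downstream, stably expressed under a CMV promoter in HeLa cells that make miR-21 endogenously, reports miRNA modulation after 48 h compound exposure up to approximately 40uM final.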
GLA inh pH 4.5: blocks human alpha-galactosidase A at pH 4.5 | P06280 | purified enzyme, 4-MU-alpha-Gal fluorescence, pH 4.5 | 230,000 tested, under 10 active | activity change, negative = inhibition, % at 105 µM; inconclusive = small, poorly fitted or top-dose-only inhibition, or a rising curve; inactive = flat fitted curve, though single readings scatter; no compound was filed as active;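 also: 0% = full activity with enzyme and -100% = basal without enzyme; dose as in the result columns while the protocol names 77 µM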
Numbers without * were called inactive; ? = inconclusive; . = not tested or not shown; & = joins results of further samples. Some of the compounds tested (hit frequency here may not be typical).

SMILES | Rango release inh | Rango complex inh | miR-21 FLuc | GLA inh pH 4.5
COc1ccccc1C(c1nnnn1CC1CCCO1)N1CCC(C(N)=O)CC1 (stereo unspecified) | 3% | 0.0% | -2% | -7
Cn1nc(-c2ccc(Cl)cc2)c2cc(C(=O)N3CCN(c4ccccc4)CC3)sc21 | -24% | -0.8% | -3% | -4
CC(=O)Nc1ccc(S(=O)(=O)NCC(=O)OCC(=O)c2ccc[nH]2)cc1 | -1% | -2.2% | . | .
CCN(CC(=O)Nc1c(F)cccc1F)C(=O)CCCOc1ccc(OC)cc1 | ? | -2.6% | . | .
COc1ccc(-c2csc3nc(-c4ccccc4)oc(=O)c23)cc1OC | -16% | -2.2% | -13%&0% | -2
Cc1ccc(NS(=O)(=O)c2ccc(CCC(=O)NCc3ccccn3)cc2)cc1 | -20% | -4.2% | -3% | -1
Cc1ccc(S(=O)(=O)N2CCN(C(=O)CSc3nnnn3C)C2)cc1 | -4% | 0.5% | -6% | -12
COc1ccccc1CCNC(=O)C(=O)NCC1OCCN1S(=O)(=O)c1ccc2c(c1)OCCO2 (stereo unspecified) | -5% | -3.6% | 20% | .
COc1cccc(CN(C)C(=O)CCC(=O)c2cc(Br)ccc2OC)c1 | 13% | ? | . | .
CC(=O)Nc1ccc(S(=O)(=O)Nc2ccccn2)cc1 | 17% | 1.1% | -3% | 7
Cc1ccc(S(=O)(=O)OCC(=O)Nc2ccc(C(=O)O)c(O)c2)cc1 | -1% | 2.8% | . | .
CCOc1cccc(-c2csc(C3COc4ccccc4O3)n2)c1 (stereo unspecified) | 5% | -0.1% | -31% | 11
COc1ccc(S(=O)(=O)Cc2ccc(C(=O)NC3CCC(C)CC3)o2)cc1 (stereo unspecified) | 28% | 0.0% | -2% | .
C=CCSc1nnc(-c2ccccc2NC(C)=O)c(=O)[nH]1 | 14% | -1.3% | -11% | 5
CCCCN(C(=O)c1ccc(N2C(=O)c3ccccc3C2=O)cc1)c1c(N)n(CC(C)C)c(=O)[nH]c1=O | -11% | -2.9% | . | .
Cc1ccc(C(=O)Nc2nn(C)c3cccc(F)c23)cc1 | -19% | 4.4% | -18% | -5
COc1ccccc1OCC(=O)NCC(C)NC(=O)COc1ccccc1OC (stereo unspecified) | -8% | 0.2% | . | .
Cc1ccccc1NC(=S)NCc1ccc(F)cc1 | 0% | -2.2% | 3% | .
Cc1ccc(NC2c3ncccc3C(=O)N2Cc2cccs2)cc1C (stereo unspecified) | 5% | 1.3% | -14% | -3
O=C(Nc1ccc(Cl)cc1)Nc1ccccn1 | 6% | -1.8% | -56% | .
CSc1ccccc1NC(=O)C1=CC(c2ccc(C)cc2)=NS(=O)(=O)N1C | 2% | 0.1% | 1% | .
Cc1nc(/N=C(\N)NC(=O)N2c3ccccc3Sc3ccccc32)nc2ccccc12 | 13% | ? | -3% | 5
COc1ccccc1-c1cc(N)n[nH]1 | -5% | -3.1% | 0% | 6
O=C(N/C(=C/c1ccc(Br)cc1)C(=O)N1CCOCC1)c1ccc(Br)o1 | 26% | 4.5% | -2% | .

Reformatted tab-delimited: 3 of the compounds above.
mol	Rango release inh	Rango complex inh	miR-21 FLuc	GLA inh pH 4.5
Cc1ccc(NC2c3ncccc3C(=O)N2Cc2cccs2)cc1C (stereo unspecified)	5%	1.3%	-14%	-3
Cc1ccccc1NC(=S)NCc1ccc(F)cc1	0%	-2.2%	3%	.
C=CCSc1nnc(-c2ccccc2NC(C)=O)c(=O)[nH]1	14%	-1.3%	-11%	5

Continued:
SMILES | Rango release inh | Rango complex inh | miR-21 FLuc | GLA inh pH 4.5
COc1ccc(/C=N/c2oc(-c3ccccc3)cc2C#N)cc1OC | 6% | -0.1% | -24% | 8
COc1ccc(CNC(=O)C2CCN(S(=O)(=O)c3ccc4c(c3)NC(=O)C(C)S4)CC2)cc1 (stereo unspecified) | 6% | 1.7% | 17% | .
O=C/C(=C\Nc1ccccn1)c1nc2ccccc2o1 | ? | ? | -19% | -13
CCOC(=O)CNc1cccc(C(F)(F)F)c1 | -1% | -2.0% | -9% | -8
CCCCCCCCNCCS(=O)(=O)NC1CCCCC1 | 34% | -2.4% | . | .
COc1ccc(Br)cc1C(=O)O | 18% | -1.3% | -2% | 4
Cc1cc(-n2c(SCC(=O)NCc3cccs3)nc3n[nH]c(C)c3c2=N)ccc1Cl | 8% | 4.5% | -6% | 8
CCNC(=O)c1ccccc1NC(=O)c1cccc(S(=O)(=O)N2CCC(C)CC2)c1 | 6% | 2.8% | 22% | -5
O=C(CN(c1ccccn1)S(=O)(=O)c1ccccc1)Nc1ccccc1 | 2% | -0.5% | 0% | 8
Brc1ccc(CSc2ncn[nH]2)cc1 | -12% | -0.9% | -24% | 0
CC(=O)Nc1nc(CC(=O)c2ccccc2)cs1 | 0% | 2.9% | -13% | 8
CN(C)c1ccc(C(=O)c2ccccc2C(=O)O)c(O)c1 | -10% | 1.0% | -7% | -6

Ordered by length of the SMILES (low to high): some entries from above
SMILES | Rango release inh | Rango complex inh | miR-21 FLuc | GLA inh pH 4.5
COc1ccc(Br)cc1C(=O)O | 18% | -1.3% | -2% | 4
CCOC(=O)CNc1cccc(C(F)(F)F)c1 | -1% | -2.0% | -9% | -8
CC(=O)Nc1nc(CC(=O)c2ccccc2)cs1 | 0% | 2.9% | -13% | 8
Cc1cc(-n2c(SCC(=O)NCc3cccs3)nc3n[nH]c(C)c3c2=N)ccc1Cl | 8% | 4.5% | -6% | 8
COc1ccc(CNC(=O)C2CCN(S(=O)(=O)c3ccc4c(c3)NC(=O)C(C)S4)CC2)cc1 (stereo unspecified) | 6% | 1.7% | 17% | .

Additional structures.
SMILES | Rango release inh | Rango complex inh | miR-21 FLuc | GLA inh pH 4.5
Cc1ccc(S(=O)(=O)N2CCC(C(=O)N[C@@H](C)C(=O)Nc3ccc4c(c3)OCO4)CC2)cc1 | -9% | 1.2% | -4% | -15
NS(=O)(=O)c1cc2c(cc1Cl)NC(C1CC3C=CC1C3)NS2(=O)=O (stereo unspecified) | -13% | 0.9% | . | 3
COc1ccc(N(CC(=O)NCCc2ccc(S(N)(=O)=O)cc2)S(=O)(=O)c2c(C)noc2C)cc1 | -1% | -3.0% | 2% | .
C=C1CCC[C@]2(C)C[C@H]3OC(=O)C(CNC(C)CCCC(C)C)[C@H]3CC12 (stereo partly specified) | 35% | -2.0% | 9% | .
CC1CCCCN1CCCNc1ccc(C(CC(N)=O)NC(=O)Cc2ccc(Cl)cc2)cc1[N+](=O)[O-] (stereo unspecified) | 4% | -1.9% | -3% | .
COc1cc(SC)ccc1C(=O)Nc1ccon1 | 2% | -0.7% | -56% | 10
COc1ccc(S(=O)(=O)N2CCCCCC2)cc1NC(=O)CN(C)Cc1ccc2c(c1)OCO2 | -9% | -2.1% | . | .
COCCN(C/C=C/c1ccccc1)C/C=C/c1ccccc1 | 28% | -1.2% | 1% | .
O=C(CSc1nnc(CCc2nc3ccccc3[nH]2)n1-c1ccccc1)NCc1ccccc1 | 16% | -2.7% | -4% | 0
COc1ccccc1C(=O)Nc1ncc2c(n1)CC(c1ccco1)CC2=O (stereo unspecified) | 1% | -2.1% | -15% | 1
Cc1ccc(S(=O)(=O)N2c3ccccc3CC2C)cc1 (stereo unspecified) | -8% | -2.3% | 21% | -10
COc1ccc(-n2nnnc2SCC(=O)N2CCCc3ccccc32)cc1OC | -12% | -0.3% | -15% | -7
CC(=O)Nc1nc(C)c(-c2csc(Nc3cccc(C(C)=O)c3)n2)s1 | 1% | 1.8% | 14% | .
CCN(CC)CCCNC(=O)Cn1cc2c(n1)CCC(C)C2 (stereo unspecified) | 8% | 0.4% | -7% | 6
O=C(Nc1ccc(-c2nc3ccccc3[nH]2)cc1)c1ccc(N2C(=O)CCC2=O)cc1 | 3% | -4.0% | -4% | -6
COc1ccc(CNc2nc3ccccc3n2CCN2CCOCC2)cc1 | -10% | 1.3% | -12% | 4
O=C(NCCOc1ccccc1)c1ccc2n[nH]nc2c1 | -8% | 1.3% | . | .
Cc1cccc(N2CCN(c3ccc(N4C(=O)CCCC4=O)cc3[N+](=O)[O-])CC2C)c1 (stereo unspecified) | 0% | 0.3% | -4% | -7
Clc1ccc(SCCCCN2CCNCC2)cc1 | -11% | 0.1% | -31% | 4
COCCN(C(=O)COC(=O)c1cccc2ccccc12)c1c(N)n(Cc2ccccc2)c(=O)[nH]c1=O | 1% | 0.5% | -10% | .
CN(Cc1ccccc1)C(=O)CCSc1nc(-c2ccc3c(c2)OCO3)cc(C(F)(F)F)n1 | -2% | -1.0% | -1% | -14
CN1C(=O)C(C)(C)c2cc(S(=O)(=O)N3CCC(C(=O)Nc4ccc(Cl)cc4)CC3)ccc21 | 18% | -2.9% | 0% | .
CC(=O)NC1=NN(C(C)=O)C(C)(c2ccc(Br)cc2)S1 (stereo unspecified) | 19% | 2.0% | 12% | -9
COc1cccc(OC)c1C(=O)Nc1ccc(S(=O)(=O)Nc2cc(C)nc(C)n2)cc1 | 0% | 6.2% | 2% | -16
Cc1cc(N2CCOCC2)nc2ccc(NC(=S)NCCC(C)C)cc12 | -17% | -0.4% | -1% | .
Cc1sc(NC(=S)NC(=O)c2ccc(C(C)(C)C)cc2)c(C#N)c1C | -6% | -4.2% | -15% | -8
Cc1ccc(S(=O)(=O)NCC(=O)N(CCc2ccccc2)CC(=O)NCc2ccco2)cc1 | 2% | -3.5% | 6% | -7
CC1(C)C(=O)Nc2ccccc2N1C(=O)CN1C(=O)c2ccccc2C1=O | -13% | -1.8% | -2% | 8
Cc1ccc(C(=O)CNc2cc(C)ccc2C)cc1 | 1% | 2.7% | -4% | .
NC(=O)C1CCN(C(=O)CCC(=O)c2ccc(F)cc2)CC1 | 3% | 1.3% | -6% | .
O=C(Nc1cccc(CCc2ccccn2)c1)c1cc(F)c(F)cc1Cl | 16% | -3.2% | -11% | -1
O=S(=O)(c1ccc(OC(F)(F)F)cc1)N1CCC(O)(c2cccc(C(F)(F)F)c2)CC1 | 22% | 1.5% | -4% | .
CS(=O)(=O)N1CCC(c2noc(-c3ccc(C(F)(F)F)cc3)n2)CC1 | 3% | 3.8% | -2% | 4
Cc1cc(C)cc(Oc2coc3cc(OC(=O)c4cccs4)ccc3c2=O)c1 | -11% | -5.4% | -17% | .
CCOC(=O)C(=O)NC(C)CCc1ccccc1 (stereo unspecified) | 8% | 6.2% | 0% | 7
COc1ccccc1C(=O)NCC(=O)N/N=C/c1cc(Br)ccc1OC(=O)/C=C\c1ccco1 | ? | ? | -1% | -4
Cc1ccc(-c2nc3sc(C(N)=O)c(N)c3c3c2CCCC3)cc1 | ? | ? | 8% | -4
CCCCN(C)C(=O)c1cn(CC)c2nc(C)ccc2c1=O | -6% | -5.0% | -3% | 3
CC1OC(Nc2cccc3ccccc23)C(O)C(O)C1O (stereo unspecified) | -5% | -2.8% | 2% | 4
Brc1ccc(C[n+]2ccccc2)cc1 | 15% | -0.1% | . | .
Cc1cccc(-c2noc(CN(C(=O)CCc3ccccc3)C(C)C)n2)c1 | 11% | -4.3% | -24% | 0
COc1ccc(CCNC(=S)Nc2cc(C)cc(C)c2)cc1 | -17% | -3.6% | 1% | 4
CN(C)c1ccc(/C=N/NC(=O)c2ccc(CN3CCOCC3)cc2)cc1Br | 1% | 5.3% | 9% | -27

In the list so far, 2 contain a cyano group.
SMILES | Rango release inh | Rango complex inh | miR-21 FLuc | GLA inh pH 4.5
COc1ccc(/C=N/c2oc(-c3ccccc3)cc2C#N)cc1OC | 6% | -0.1% | -24% | 8
Cc1sc(NC(=S)NC(=O)c2ccc(C(C)(C)C)cc2)c(C#N)c1C | -6% | -4.2% | -15% | -8
